Screening results: PubChem, several laboratories
T cruzi inh = T. cruzi replication inhibition. inhibition, % (test concentration not listed). AID 1885. actives 1.4% (n = 300,000). T. cruzi beta-gal in NIH3T3, luminescence, 90 h;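 active = mean inhibition across valid replicates above about 55%, limit read from the data; inconclusive = mean below that limit but half or more replicates reach it; inactive = mean below it, under half of replicates reach it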;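 note: signal also drops with host cell toxicity which is not excluded here; 0% = plate median of DMSO wells and 100% = zero luminescence signal; higher percent means less beta-gal luminescence so fewer parasites; stock transfer was 50 nL into about 50 µL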
LANA-H2B inh = blocks KSHV LANA binding to histone H2A/H2B; cell-free LANA-H2A/H2B peptide, fluorescence polarization; inhibition, % (test concentration not listed); actives 0.6% (n = 320,000); AID 2629; in the data active = inhibition mostly above about 10%, no sharp cut-off; inactive = mostly below about 6.7%;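 note: stock transfer was 7.5 nL into about 10 µL; 0% = median of vehicle wells and 100% = median of positive control wells; one replicate is shown; the record names a cut of 25% in any replicate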
Target sequence (Q9QR71 whole entry, looked up): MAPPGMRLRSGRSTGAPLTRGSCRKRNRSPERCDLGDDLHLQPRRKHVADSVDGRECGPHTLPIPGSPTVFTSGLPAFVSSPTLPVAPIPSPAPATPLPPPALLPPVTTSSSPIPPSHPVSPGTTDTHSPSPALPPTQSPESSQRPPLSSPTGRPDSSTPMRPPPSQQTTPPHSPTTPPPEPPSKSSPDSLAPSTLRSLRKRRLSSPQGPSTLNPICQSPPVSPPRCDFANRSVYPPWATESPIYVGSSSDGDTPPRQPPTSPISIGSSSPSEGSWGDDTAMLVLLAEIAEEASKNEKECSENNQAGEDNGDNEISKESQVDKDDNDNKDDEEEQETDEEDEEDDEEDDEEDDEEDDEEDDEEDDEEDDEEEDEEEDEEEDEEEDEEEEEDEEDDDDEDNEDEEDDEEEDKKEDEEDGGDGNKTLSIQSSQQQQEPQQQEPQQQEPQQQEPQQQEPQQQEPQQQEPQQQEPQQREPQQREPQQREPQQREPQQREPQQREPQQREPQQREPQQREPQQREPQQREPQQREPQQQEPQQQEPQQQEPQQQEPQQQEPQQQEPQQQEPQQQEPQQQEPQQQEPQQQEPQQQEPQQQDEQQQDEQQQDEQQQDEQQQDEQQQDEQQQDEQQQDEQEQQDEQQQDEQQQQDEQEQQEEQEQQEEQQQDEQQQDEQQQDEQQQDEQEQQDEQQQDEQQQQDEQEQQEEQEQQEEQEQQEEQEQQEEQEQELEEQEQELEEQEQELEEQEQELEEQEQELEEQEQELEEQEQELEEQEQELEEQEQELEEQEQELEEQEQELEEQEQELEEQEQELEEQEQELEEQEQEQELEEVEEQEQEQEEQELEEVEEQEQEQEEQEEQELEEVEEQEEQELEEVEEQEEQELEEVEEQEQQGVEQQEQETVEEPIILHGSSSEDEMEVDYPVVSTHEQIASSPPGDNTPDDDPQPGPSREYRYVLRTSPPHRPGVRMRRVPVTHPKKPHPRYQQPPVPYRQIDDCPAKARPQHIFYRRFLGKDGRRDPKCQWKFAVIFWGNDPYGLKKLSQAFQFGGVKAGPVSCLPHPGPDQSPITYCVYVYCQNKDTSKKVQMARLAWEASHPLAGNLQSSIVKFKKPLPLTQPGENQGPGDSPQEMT
Beta apoptosis = beta cell apoptosis inhibition | INS-1E cytokine-induced death, ATP luminescence, 48 h; percent of positive-control rescue, neutral wells zero | protection from apoptosis, % (concentration not given with the values) | actives 0.8% (n = 300,000);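 active = all replicates at 75% or more, or half of them and the mean; inconclusive = half reach 75% but not the mean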;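 note: 0% = cytokine-treated negative control wells and 100% = positive control rescue; higher means more ATP so stronger rescue from cytokine killing; wells of about 40 µL received 100 nL stock; the first replicate is given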
UCH37 DUB inh = inhibitors of human deubiquitinating enzyme UCH37; inhibition, % (concentration not given with the values); actives 0.33% (n = 330,000); purified proteasome/UCH37, Ub-AMC cleavage fluorescence; Q9Y5K5;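 active = mean of two replicates above 20%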;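 note: 0% = compound-free wells with enzyme and 100% = wells lacking proteasome; stock transfer was 100 nL into about 20 µL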
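Assay system: Proteasome-bound UCH37. Buffer or medium: pH 7.4 Tris-HCl (50 mM) with ovalbumin, ATP-MgCl2, DTT. Incubation: 30 min preincubation with enzyme, 25 min cleavage at room temperature. Measured by: fluorescence, ex 355 nm, em 460 nm. Read-out basis: percent inhibition. Control set: wells without proteasome as full block, compound-free enzyme plus substrate as uninhibited.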
RanGTP-Impb inh = inhibitors of RanGTP-importin-beta interaction, primary screen, biochemical, FRET, CFP-Ran, YFP-importin-beta, homogeneous; cell-free CFP-Ran/YFP-importin-beta FRET ratio; inhibition, % (no concentration beside the values); actives 1.1% (n = 300,000); AID 2216;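 active = most replicates above 15%; inconclusive = exactly half above 15%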;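 note: 0% = DMSO wells and 100% = Ran loaded with GDP instead of GTP; wells of about 40 µL received 100 nL stock; the first replicate is given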
Calb FLC = affects C. albicans growth with fluconazole | C. albicans CaCi-2 (fluconazole-resistant clinical isolate) + fluconazole, Alamar Blue growth, 48 h | growth inhibition, % (no concentration beside the values) | AID 1979 | actives 0.57% (n = 300,000);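 active = most replicates above 75%; inconclusive = exactly half above 75%; inactive = most below 75%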;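 note: all wells also contain fluconazole at 8 µg/ml as a sub-toxic cotreatment; 0% = median of DMSO wells and 100% = median of geldanamycin control wells; wells of about 8 µL received 7.5 nL stock; the first replicate is given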
A1 inh = inhibitors of the anti-apoptotic protein A1, read as caspase activation; MEF A1-2A-BIM cells, Caspase-Glo 3/7 luminescence, 3 h; percent of clofoctol response, vehicle zero; caspase activation, % (no concentration beside the values); actives 0.066% (n = 330,000); AID 2462;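 active = over half of replicate activation scores above 10%, or exactly half above 10 with the replicate mean above 10; inconclusive = replicate mean below 10 yet half the replicates above 10; inactive = over half of replicates below 10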;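 note: wells of about 30 µL received 50 nL stock; many hits fall short of the cut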
B2AR ag = human beta-2 adrenergic receptor agonism by FAP; response, % (no concentration beside the values); actives 0.43% (n = 340,000); P07550; Am2.2-beta2AR cells, FAP receptor internalization, flow cytometry; reference of the scale not given here;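 active = response above a set limit, near 3 SD of response in nonfluorescent compounds, cut at about 42% in these data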;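 note: stock transfer was 100 nL into about 11 µL; a reference agonist was the positive control; negative values mostly stem from fluorescent compounds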
* hit, by the source's call; ? = inconclusive; / = no result given.

Values run as follows: T cruzi inh | LANA-H2B inh | Beta apoptosis | UCH37 DUB inh | RanGTP-Impb inh | Calb FLC | A1 inh | B2AR ag
- Oc1ccccc1OCC(O)c1ccccc1 (stereo not given)
  -13 | 4.9 | -2 | 3.0 | 0.1 | 1 | 0.7 | -2
- CCOC(=O)CSc1nnc(CNC(=O)c2ccco2)n1C
  -15 | 4.6 | -4 | 0.7 | 0.0 | 4 | 0.2 | -8
- O=S(=O)(c1ccc2ccccc2c1)N1CCCCCC1
  -8 | -4.4 | 1 | 1.9 | -3.6 | -19 | -0.8 | -1
- CCc1nc(C)ccc1OCC(=O)O
  -4 | -2.3 | -1 | 1.1 | -1.3 | 4 | 0.7 | -2
- COC(=O)c1onc(-c2c(OC)cc(OC)cc2OC)c1C(=O)OC
  -8 | 7.4 | -5 | 0.1 | -1.6 | 0 | 1.4 | 10
- Cc1ccc(CCCOC(=O)C[N+]2(C)CCOCC2)cc1
  10 | -3.7 | -5 | 3.6 | -0.2 | -9 | -0.6 | 3
- O=C(COC(=O)c1ccc(O)cc1)Nc1ccccc1[N+](=O)[O-]
  -1 | -0.2 | -1 | 2.6 | ? | ? | -4.0 | 8
- Cc1c(C(=O)N2CCCCC2)c(S(=O)(=O)N2c3ccccc3CC2C)c(C)n1C (stereo not given)
  -16 | -7.7 | -11 | 5.0 | 0.5 | -4 | 0.7 | 3
- CC(C)Cn1cnc2c1c(=O)n(CC(=O)N(C)C)c(=O)n2Cc1ccccc1
  3 | -1.3 | -2 | -3.0 | -6.4 | 2 | -0.7 | 0
- O=C1c2ccccc2C(=O)N1CCc1csc(NNc2nc(CCN3C(=O)c4ccccc4C3=O)cs2)n1
  -1 | -2.5 | 3 | 3.1 | 3.3 | 16 | 0.2 | 1
- S=C(c1ccc(-c2ccc(Cl)cc2Cl)o1)N1CCCCC1
  13 | 0.0 | -1 | 4.8 | -1.0 | -7 | -0.1 | -9
- Cc1nc(NC(=O)/C=C/c2ccccc2)n[nH]1
  -48 | 2.9 | -37 | 0.6 | -0.8 | -2 | 0.7 | 14
- CC1(C)CC(=O)C2=C(C1)NC1=C(C(=O)c3ccccc31)C2c1ccc(Cl)cc1 (stereo not given)
  31 | -3.8 | 1 | 2.2 | 1.7 | -3 | 0.6 | 0
- CCOc1ccc(C(C)C)cc1S(=O)(=O)N1CCOCC1
  5 | 0.4 | -4 | 0.8 | -2.2 | 24 | 0.8 | -4
- Cc1ccc2nc(N/C(=N/S(=O)(=O)c3cccs3)c3ccccc3Cl)sc2c1
  7 | -0.2 | 8 | 7.6 | -0.2 | 69 | 0.6 | 5
- CC(=O)NC(c1cc(Cl)c2cccnc2c1O)C(C)C (stereo not given)
  / | 1.5 | 103* | 0.8 | / | / | 0.7 | -12
- COc1ccc(C(=O)Nc2ccc(C)cc2C(=O)c2ccccc2)cc1
  11 | 1.1 | 5 | 1.4 | 3.1 | -6 | 0.4 | -19
- CC1(C)CC(=O)c2cn3c(nc2C1)nc1ccccc13
  3 | -12 | -1 | 0.1 | 7.7 | 0 | -0.4 | -7
- CC(C)C(NC(=O)c1c(F)cccc1F)C(=O)N1CCN(c2ccccc2F)CC1 (stereo not given)
  1 | 2.7 | -9 | 1.5 | 2.2 | -18 | ? | 0
- CCCOc1ccc(-c2nc(C#N)c(N3CCc4ccccc4C3)o2)cc1
  -8 | 1.2 | -12 | -137 | -0.8 | 18 | 2.7 | 1
- COc1cc(NC(=O)CSc2nnc(-c3ccncc3)n2C2CCCCC2)ccc1NC(=O)c1ccco1
  / | -2.2 | -5 | -23 | / | / | 0.8 | -24
- Fc1cc2nccnc2cc1N1CCSCC1
  -1 | 0.9 | 0 | -7.5 | 7.6 | -4 | 1.0 | -16
- CC(=O)N/C(=C\c1ccccc1)C(=O)OCC(=O)NC(=O)c1ccccc1
  -20 | -0.5 | -6 | 0.8 | 5.7 | / | -0.5 | 3
- CCC(=O)c1ccc(N2CCN(C(=O)COc3ccc(F)cc3)CC2)c(F)c1
  -5 | -1.8 | 6 | -0.2 | 0.7 | -2 | -0.1 | -4
- CCCCOC(=O)n1c(SCC(=O)N(CC)CC)nc2ccccc21
  15 | -2.0 | 0 | 4.8 | -5.2 | -11 | 1.2 | -17
- CC1=C(C(=O)Nc2ccccc2)C(c2ccc(C)o2)n2c(s/c(=C\c3ccco3)c2=O)=N1 (stereo not given)
  16 | / | / | / | -6.6 | -4 | / | -2
- CC(=O)Nc1ccc(C(=O)N2CCc3cc4c(cc3C2C)OCCCO4)cc1 (stereo not given)
  1 | 0.2 | / | -4.0 | 0.3 | -11 | -1.1 | -2
- CC1(c2ccc(Cl)cc2)NC(=O)N(CC(=O)N2CCN(S(=O)(=O)c3ccccc3)CC2)C1=O (stereo not given)
  -1 | 0.0 | -1 | 2.8 | 1.3 | -4 | -1.2 | -2
- COC(=O)c1ccc(-n2nnnc2SCC(=O)Nc2ccccc2C(=O)OC)cc1
  1 | / | / | / | 3.6 | 0 | / | 5
- Cc1[nH]c(=S)[nH]c(=O)c1CCC1OCCO1
  3 | 0.1 | 5 | 3.8 | -0.3 | 3 | -1.1 | -2

Some of the entries so far, with each value named.
CC1(C)CC(=O)C2=C(C1)NC1=C(C(=O)c3ccccc31)C2c1ccc(Cl)cc1 (stereo not given)
  T cruzi inh = 31	LANA-H2B inh = -3.8	Beta apoptosis = 1	UCH37 DUB inh = 2.2	RanGTP-Impb inh = 1.7	Calb FLC = -3	A1 inh = 0.6	B2AR ag = 0

CCOc1ccc(C(C)C)cc1S(=O)(=O)N1CCOCC1
  T cruzi inh = 5	LANA-H2B inh = 0.4	Beta apoptosis = -4	UCH37 DUB inh = 0.8	RanGTP-Impb inh = -2.2	Calb FLC = 24	A1 inh = 0.8	B2AR ag = -4

Cc1ccc2nc(N/C(=N/S(=O)(=O)c3cccs3)c3ccccc3Cl)sc2c1
  T cruzi inh = 7	LANA-H2B inh = -0.2	Beta apoptosis = 8	UCH37 DUB inh = 7.6	RanGTP-Impb inh = -0.2	Calb FLC = 69	A1 inh = 0.6	B2AR ag = 5

CC(=O)NC(c1cc(Cl)c2cccnc2c1O)C(C)C (stereo not given)
  T cruzi inh = /	LANA-H2B inh = 1.5	Beta apoptosis = 103*	UCH37 DUB inh = 0.8	RanGTP-Impb inh = /	Calb FLC = /	A1 inh = 0.7	B2AR ag = -12

Going on with the list:
Values run as follows: T cruzi inh | LANA-H2B inh | Beta apoptosis | UCH37 DUB inh | RanGTP-Impb inh | Calb FLC | A1 inh | B2AR ag
- O=C(O)C1=C[C@@H](c2coc3ccccc3c2=O)C[C@@H](OCc2ccc(CO)cc2)O1
  -20 | -3.2 | 2 | 1.4 | 1.3 | 7 | 0.0 | -8
- O=C(Cn1cc(C(F)(F)F)ccc1=O)NCC1CCCO1 (stereo not given)
  / | / | -4 | 5.7 | / | / | 0.6 | -3
- O=C(Cc1ccccn1)c1ccc(F)cc1
  -5 | -2.3 | -3 | -0.2 | 0.0 | -7 | -4.6 | 1
- COc1ccc(OC)c(CNC(=O)c2coc(=O)c3ccccc23)c1
  -17 | -3.0 | 3 | 0.4 | -61 | ? | -0.7 | 2
- COC(=O)C1=C(CSCc2ccccc2)NC(=O)NC1c1cc(C)ccc1C (stereo not given)
  -28 | -1.7 | 3 | 2.7 | 0.3 | 5 | 0.1 | 8
- CCOC(=O)C1=C(C)N=c2s/c(=C/c3ccc(OCC(=O)O)cc3)c(=O)n2C1c1ccc(SC)cc1 (stereo not given)
  2 | -0.4 | / | / | 3.7 | 17 | 0.7 | 21
- COc1ccc2c(c1)C(=O)N1[C@H]3c4cc(C)ccc4OC[C@@H]3[C@H](c3ccccc3)[C@]1(C)C(=O)N2
  / | 5.8 | 15 | 4.4 | / | / | -0.5 | 4
- CCN(CC)S(=O)(=O)c1ccc(/C=C/C(=O)NC2CCCCC2)cc1
  7 | 1.3 | 5 | 3.0 | 3.5 | 10 | 0.7 | -26
- O=C(CN(c1ccccc1)S(=O)(=O)c1ccccc1)NCCSc1nc2ccccc2s1
  -2 | -1.8 | 0 | 0.7 | 5.6 | -1 | 0.4 | 6
- C=CC[n+]1ccn(-c2nc3ccccc3nc2[N-]S(=O)(=O)c2cccs2)c1
  47 | -0.7 | -1 | -106 | 0.9 | -2 | 0.1 | -5
- CCOc1cc(/C=N/Nc2nc(-c3cccs3)c(NC(C)=O)s2)ccc1O
  1 | -2.1 | -1 | / | 0.9 | -10 | -0.4 | 5
- CCO[C@H]1OC(C(=O)NCc2nc3ccccc3[nH]2)=C[C@@H](c2ccc(C(F)(F)F)cc2)[C@@H]1CCCO
  4 | -5.6 | -8 | 2.7 | 6.2 | 5 | -0.2 | -8
- CNc1nnc(CSc2nc(C)cc(C)n2)s1
  / | -2.1 | / | 0.4 | -3.0 | 3 | 0.0 | -3
- Cc1ccc(NC(=S)NN(C)c2nc(C)cnc2C)cc1
  -15 | -2.5 | -10 | -0.7 | 7.4 | -2 | 0.4 | 2
- Cc1ccc(NS(=O)(=O)c2ccc(-n3cccn3)cc2)cc1C
  -5 | -2.4 | 8 | 4.4 | -3.1 | -7 | -0.8 | -12
- COC(=O)c1c(NC(=O)CS(=O)(=O)c2ccccc2)sc(C)c1C
  3 | / | -3 | 1.4 | 0.1 | -13 | -0.4 | 1
- C[C@H](NS(=O)(=O)c1ccccc1F)C(=O)OCC(=O)Nc1ccc2c(c1)OCCO2
  / | -1.8 | 0 | 3.0 | / | / | -0.5 | 2
- O=C(Nc1ccccc1N1CCCC1)C1CCN(S(=O)(=O)c2ccccc2C(F)(F)F)CC1
  8 | / | 9 | 1.1 | 8.8 | 1 | 0.4 | 0
- O=C(NNC1=Nc2ccccc2SC1)c1cccc([N+](=O)[O-])c1
  -10 | -0.4 | / | 0.5 | -2.9 | -3 | 0.0 | -1
- Cc1cccnc1NC(=O)C1CC(=O)N(c2ccc3c(c2)OCCO3)C1 (stereo not given)
  -11 | 3.1 | -3 | 1.1 | 4.8 | 1 | 0.1 | -8
- COc1cc(C2SC(C)C(=O)N2CCc2ccccc2)cc(OC)c1OC (stereo not given)
  -4 | -5.6 | 2 | 3.3 | 0.0 | 21 | 0.1 | 4
- Cc1ccc(Nc2ncc3c(n2)CC(C)CC3=O)c(C)c1 (stereo not given)
  -10 | 5.1 | -6 | 3.1 | 1.1 | -23 | -1.9 | -7
- Cc1ccc(C(=O)N2CC(=O)Nc3ccc(C)cc3C2c2ccccc2)cc1 (stereo not given)
  8 | / | / | 4.9 | -1.6 | -6 | / | -1
- O=C1CN(C(=O)COc2ccc(Cl)cc2Cl)c2ccccc2N1
  -3 | -2.5 | -1 | 4.3 | -7.2 | 1 | -0.5 | -11
- Cc1c(C)c2ccc(OCC(=O)Nc3nccs3)cc2oc1=O
  1 | 1.1 | -7 | -29 | -1.0 | -5 | -8.6 | -14
- O=C(COc1ccccc1)NC1CCCN(Cc2ccccc2F)C1 (stereo not given)
  8 | 3.2 | -1 | -0.4 | ? | -2 | -0.3 | -4
- COC(=O)[C@H](Cc1ccccc1)NC(=O)N1CCCCC1
  -7 | -0.4 | -12 | 4.6 | 1.1 | 0 | -0.5 | 5
- Cc1ccc([N+](=O)[O-])c(OCCN2CCCCCC2)c1
  -1 | -1.0 | 79* | 5.1 | 5.3 | -30 | 0.0 | 6
